# HTT promoter inh – HTT promoter inhibition; HEK293 HTT promoter firefly luciferase reporter (activity 0% = vehicle and -100% = no light), 24 h; Potency, µM (highest dose often 57.5 µM), for the others: top-dose activity change, negative = inhibition, most hits filed as inhibitors; 48,000 compounds, 0.93% hits; AID 1508623; active = well fitted inhibition curve with a large enough effect; inconclusive = small, poorly fitted or top-dose-only effect; inactive = no such curve, though single readings can be large or run the other way; note: nearly all actives have a fitted effect of over 50% in size
#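 Firefly luciferase readout (Dual-Glo, 10 min RT) after 24 h, 37 °C compound exposure (final up to 57.5 uM) of HEK293 reporter cells cultured 24 h beforehand; PTC124 at 50 uM final as control inhibitor; activity scaled vehicle 0%, zero RLU -100%.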
# PMP22 txn – modulates PMP22 transcription in S16 Schwann cells; S16 Pmp22-F2sN Schwann cells (luciferase reporters placed in the Pmp22 gene), FLuc/NLuc coincidence luminescence, 24 h; Potency, µM (series often up to 57.5 µM), for inactives: top-dose activity change, negative = inhibition, actives largely listed as inhibitors; 43,000 compounds, 2% hits; AID 1508649; active = clear falling dose curves in both reporters; inconclusive = both reporters move, but less clearly or upward; inactive = either reporter flat; the % is the NLuc reporter signal; note: % is set by controls: 0 for no effect and ±100 for the full control effect; some results filed as inactive show a strong effect at the top dose
#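 S16 Schwann cells carrying FLuc/NLuc coincidence reporter in the Pmp22 3' UTR treated with compound 24 h at 37C; FLuc then NLuc luminescence read sequentially by dual-luciferase reagents.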
# * hit, by the source's call; ? = inconclusive; nt = no result given; [ ] = remark or other dose. Potency is the fitted concentration of half-maximal effect.
SMILES,HTT promoter inh,PMP22 txn
COc1ccc(CNC(=O)CN(c2ccc(C)cc2)S(=O)(=O)c2c(C)noc2C)cc1,-12%,0%
COCCNC(=O)CCSc1nc(-c2ccc(OC)cc2)cc(C(F)(F)F)n1,-20%,-9%
CC(=O)N1c2ccc(S(=O)(=O)NCCc3cccc(C)c3)cc2CC1C (stereo unspecified),0%,-17%
Cc1nn(C(C)C(=O)NCc2cccc(F)c2)c(=O)c2c1sc1ccccc12 (stereo unspecified),-3%,12%
CCOc1c(CNCCSc2nnnn2C)cccc1OC,-2%,3%
COC(=O)c1c(C)oc2ccc(N(C(=O)Oc3ccccc3)S(=O)(=O)c3ccc(C(C)(C)C)cc3)cc12,?,6.6µM*
COc1ccc(CCNc2nc(SCc3cccc(Cl)c3)nc3ccccc23)cc1OC,-9%,?
Cc1ccc(NC(=O)Cn2c(=O)n(CCC(=O)N3CCc4ccccc4C3)c(=O)c3ccccc32)cc1,-10%,30%
COc1ccc(-c2nc3c(C#N)c[nH]n3c2NC2CCCCC2)cc1,19%,?
Cc1ccc(CSc2nc3cccnc3n2Cc2ccc(C(=O)NCCc3ccccc3)cc2)cc1,7%,1%
CCCCCSc1nc2sc3c(c2c(=O)n1-c1ccc(OC)cc1)CCN(C(C)=O)C3,?,?
O=C(CN1C(=O)COc2ccc(S(=O)(=O)NC3CCCC3)cc21)NCc1ccccc1Cl,-3%,-9%
Cc1csc2nc(-c3cccc(NC(=O)c4ccccc4Cl)c3)cn12,4%,-28%
Cc1noc(/C=C/c2ccccc2F)c1S(=O)(=O)N1CCC(C(=O)NCC(C)c2ccccc2)CC1 (stereo unspecified),-16%,-3%
Cc1ccc(CN2C(=O)c3ccccc3Sc3ccc(C(=O)OCc4ccco4)cc32)cc1,-27%,-3%
COc1cccc(C(=O)Nc2ccccc2SCc2cc(=O)c3cccc(C)c3[nH]2)c1,5%,1%
COc1ccc(N2CCN(C(=O)c3cnc(N4CCCC4)nc3C)CC2)cc1,-8%,-18%
CCOC(=O)c1cccc(NC(=O)Cn2ncc3c4ccccc4n(Cc4ccccc4)c3c2=O)c1,-6%,?
CCOc1ccc(OCC)c(NS(=O)(=O)c2c(C(=O)N3CCCCCC3)c(C)n(C)c2C)c1,-10%,10%
CNC(=O)CSc1nnc(NC(=O)Nc2ccccc2)s1,23%,1%
COc1cc(/C=C/c2nc(C#N)c(NCCc3ccccc3)o2)cc(OC)c1OC,-11%,-16%
CON=C(C(=O)N[C@@H]1C(=O)N2C(C(=O)O)=C(CSC(=O)c3ccco3)CS[C@H]12)c1csc(N)n1,-17%,nt
Cc1ccc(CNC(=O)c2cn(C)c3ccc(S(=O)(=O)N(C)C4CCCCC4)cc3c2=O)cc1,-12%[11.5 µM],-25%
Cc1ccccc1-c1noc(CSc2nnc(Cc3ccccc3)n2-c2ccc(F)cc2)n1,?,-28%
Cc1cccc(NC(=O)c2ccc(Cn3nc(N4CCN(c5ccccc5)CC4)ccc3=O)o2)c1C,?,?
CCCNC(=O)CCC(=O)N1Cc2cccc(OC)c2Oc2ncccc21,0%,-16%
FC(F)(F)c1cccc(N2CCN(c3ncnc4c3nc3n4CCCC3)CC2)c1,?,13µM*
O=S(=O)(NCc1cccc(Br)c1)c1ccc(-c2cc(C(F)(F)F)on2)s1,-11%,-9%
CCOc1ccccc1C(=O)N(Cc1ccccc1F)C1CCS(=O)(=O)C1 (stereo unspecified),-6%,6%
Cc1cn2c(=O)cc(COc3cc(C)c(Cl)c(C)c3)nc2s1,-12%,-7%
CC1CCC(NC(=O)CCc2cn(Cc3ccccc3Cl)c3ccccc23)CC1 (stereo unspecified),?,-14%
CCCOc1ccccc1C(=O)Nc1ccc(-c2nc3ccc(C)cc3s2)cc1,-15%,-6%
CCc1ccc2occ(CC(=O)N(Cc3ccc(N(C)C)cc3)C3CCS(=O)(=O)C3)c2c1 (stereo unspecified),-18%,-18%
Cc1ccc(NCc2cccn2-c2nnc(N3CCC(C(=O)NCCc4ccc(Cl)cc4)CC3)s2)cc1,?,?
C#CCn1c(/C=C/c2ccc(Cl)cc2)nc2ccccc21,14%,3%
Cc1nc2ccc(S(=O)(=O)CCC(=O)Nc3ccc(C(C)C)cc3)cc2s1,-12%,-22%
Cc1ccccc1Cc1c(C)nc2nc(SCC(=O)NCCc3ccc(Cl)cc3)nn2c1C,-14%,-17%
Nc1ncnc2c1ncn2[C@@H]1O[C@H](CO)C[C@@H]1O,-30%,nt
CC1CCCCN1CC(=O)N1CCCc2c1c(=O)oc1ccc(OCc3ccccc3)cc21 (stereo unspecified),?,?
CCOC(=O)c1ccccc1NS(=O)(=O)c1c(-c2ccc(C)cc2)csc1C(=O)OC,-8%,?
O=C(Cn1nnnc1-c1ccccc1F)Nc1ccc(F)c(F)c1,-7%,-26%
O=C(CSc1nc(-c2ccccc2)cc(=O)[nH]1)Nc1ccccc1F,-6%,6%
Cc1ccc(Cl)cc1NC(=O)CN1C=NS(=O)(=O)c2ccccc21,-10%,-3%
C[C@]12CCC(=O)C=C1[C@@H]1CC1[C@H]1[C@H]3[C@@H]4C[C@H]4[C@@]4(CCC(=O)O4)[C@@]3(C)CC[C@H]12 (stereo partly specified),-9%,nt
O=C(Cn1c(=O)n(Cc2ccc3c(c2)OCO3)c(=O)c2oc3ccccc3c21)Nc1ccccc1F,0%,18%

# Some of these compounds in order of the HTT promoter inh value, highest first.
molecule,HTT promoter inh
O=C(Cn1nnnc1-c1ccccc1F)Nc1ccc(F)c(F)c1,-7%
CCOC(=O)c1ccccc1NS(=O)(=O)c1c(-c2ccc(C)cc2)csc1C(=O)OC,-8%
CCc1ccc2occ(CC(=O)N(Cc3ccc(N(C)C)cc3)C3CCS(=O)(=O)C3)c2c1 (stereo unspecified),-18%
Nc1ncnc2c1ncn2[C@@H]1O[C@H](CO)C[C@@H]1O,-30%

# Further results:
SMILES,HTT promoter inh,PMP22 txn
CCN(CC)CCOC(=O)C(Cc1cccc2ccccc12)CC1CCCO1 (stereo unspecified),-4%,nt
CCN(CC)CCCNc1cc(-c2ccccc2)nc(C)n1,-9%,2%
Cc1ccc(NC(=O)Nc2nnc(N3CCCC3)s2)cc1,14%,-3%
COc1cc(CNc2ccc3[nH]c(=O)[nH]c3c2)cc(Cl)c1OCc1ccccc1F,?,?
O=C(Cn1c(=O)nc(-c2ccccc2)c2ccccc21)Nc1cccc(C(F)(F)F)c1,-12%,8%
COc1ccc(-n2c3c(c(=O)[nH]c2=O)C(NC(C)=O)(C(F)(F)F)C(=O)N3)cc1 (stereo unspecified),-15%,?
COc1ccc(N2CCN(c3oc(-c4ccccc4C)nc3S(=O)(=O)c3ccccc3)CC2)cc1,-6%,-32%
CCN(C(=O)c1cc2c(Cl)nc3ccccc3c2s1)c1cccc(Cl)c1,0%,?
CCOC(=O)C1CCN(C(=O)Cn2c(=O)cc(C)c3c(C)nn(C)c32)CC1,?,?
CCC1CCCCN1CCCNC(=O)CN1C(=O)c2cccnc2Oc2ccc(C)cc21 (stereo unspecified),-3%,-16%
Cc1ccc(Cn2cc(/C=C(/C#N)C(=O)Nc3cccc(Cl)c3)c3ccccc32)cc1,?,5%
CCOc1ccc(CCNC(=O)CCSCc2ccc(Cl)cc2)cc1OCC,-29%,-16%
CCn1cc2nc(SCc3ccc(C)cc3)n(CCc3ccccc3)c(=O)c2n1,-13%,?
Cc1ccccc1CSc1nc2c(sc3ccccc32)c(=O)n1CCCOC(C)C,-3%,?
CN1c2ccc(Cl)cc2-c2nc(SCC(=O)NCc3ccccc3)ncc2S1(=O)=O,-18%,-12%
CCOC(=O)c1scc(-c2ccc(C)cc2)c1S(=O)(=O)N1CCN(c2ccccc2F)CC1,-28%,-53%
CCN(C(=O)c1cccn(Cc2ccccc2C)c1=O)c1ccccc1,-17%,15%
CCc1cccc(C)c1Nc1nn2c(=O)c3ccccc3nc2s1,-16%,-57%
Cc1ccc(CSc2nc(-c3ccccc3C)nc3c2Cc2c(CO)cnc(C)c2O3)cc1,-12%,?
Cc1c(Cl)cccc1NC(=O)C(=O)NCCc1csc(-c2cccc(F)c2)n1,-13%,1%
CCCn1ccc2c(OCC(=O)Nc3ccc(F)cc3F)cccc2c1=O,-25%,-62%
CCCOc1ccc(-c2cc(C(F)(F)F)c(C#N)c(SCCC(=O)O)n2)cc1,?,-69%
CCN(CC)CCCNC(=O)c1ccc(-c2nc(CN3CCc4ccccc43)c(C)o2)cc1,-26%,?
CCN(CC)c1ccc(NC(=O)CN2CCN(S(=O)(=O)c3cc(Cl)ccc3OC)CC2)cc1,?,?
Cc1noc(Cn2c(=O)c3cc4c(cc3n(CC(=O)Nc3ccc(C(C)C)cc3)c2=O)OCO4)n1,-24%,-17%
CCC(C(=O)OCCOCCN(CC)CC)c1ccccc1 (stereo unspecified),-1%,nt
Cc1ccc2cccc(NC(=O)COc3cc(C)c(Cl)c(C)c3)c2n1,-3%,-38%
CCc1cc(C(=O)NCc2ccccc2)no1,42%[activator],2%
COc1cccc(NC(=O)Cn2c(=O)c3cccn3c3ccc(F)cc32)c1,-19%,-17%
CN1CCN(C(=O)c2cnn(-c3cccc(Cl)c3)c2C2CCN(C(=O)OC(C)(C)C)CC2)CC1,5%,-5%
Cc1cccc(NC(=O)Cn2c(=O)n(Cc3ccc4c(c3)OCO4)c(=O)c3oc4ccccc4c32)c1C,-8%,?
O=C(NC1CC(=O)N(c2ccc(F)cc2)C1)c1ccc2c(c1)OCO2 (stereo unspecified),6%,-6%
Cc1ccc(-c2cn3nc(N4CCCC(C(=O)NCc5ccc(F)cc5)C4)sc3n2)cc1 (stereo unspecified),?,?
CC1CCc2c(sc(NC(=O)c3cc4nc(-c5ccc(Cl)cc5)cc(C(F)(F)F)n4n3)c2C#N)C1 (stereo unspecified),4%,19%
Cc1ccc(-c2nc3n(n2)C(c2ccccc2C)C=C(c2ccc(Cl)cc2)N3)cc1 (stereo unspecified),-14%,-42%
Cc1n[nH]c(C)c1S(=O)(=O)N(CC(=O)NC(C)c1ccccc1)c1ccc(C(C)C)cc1 (stereo unspecified),-18%,?
Cc1nc(-c2ccc(Cl)cc2)sc1CCNC(=O)C(=O)Nc1ccc2c(c1)OCCO2,-34%,?
COc1ccc(OC)c(CNC(=O)c2cc(=O)[nH]c3ccc(S(=O)(=O)N4CCCCC4C)cc23)c1 (stereo unspecified),-10%,3%
COC(=O)CNC(=O)C(Cc1ccccc1)NS(=O)(=O)c1ccc2c(c1)c(=O)n(C)c(=O)n2C (stereo unspecified),-8%,-2%
COc1ccc(CCNC(=O)c2ccc3c(c2)CCN3S(=O)(=O)c2ccc(Cl)cc2)cc1,?,-19%
Cc1cc(C)n(-c2nc3ccccc3nc2Nc2cc(Cl)ccc2C)n1,-2%,-8%
Cc1ccc(C)c(N2CCN(Cc3csc(C)c3)CC2)c1,-22%,0%
CCOc1cc(CNC(=O)C(NS(=O)(=O)c2cccs2)C(C)C)cc(OCC)c1OCC (stereo unspecified),-14%,-1%
CC(=O)N1CCCc2cc(S(=O)(=O)N3CCCC(C(=O)N4CCN(c5cc(C)ccc5C)CC4)C3)ccc21 (stereo unspecified),?,?
Cc1ccc(OCC(=O)Nc2ccc3nn(-c4ccc(C)cc4)nc3c2)cc1,24%,?

# 5 neighbouring compounds out of the list so far, for reference:
SMILES,HTT promoter inh,PMP22 txn
COc1ccc(OC)c(CNC(=O)c2cc(=O)[nH]c3ccc(S(=O)(=O)N4CCCCC4C)cc23)c1 (stereo unspecified),-10%,3%
COC(=O)CNC(=O)C(Cc1ccccc1)NS(=O)(=O)c1ccc2c(c1)c(=O)n(C)c(=O)n2C (stereo unspecified),-8%,-2%
COc1ccc(CCNC(=O)c2ccc3c(c2)CCN3S(=O)(=O)c2ccc(Cl)cc2)cc1,?,-19%
Cc1cc(C)n(-c2nc3ccccc3nc2Nc2cc(Cl)ccc2C)n1,-2%,-8%
Cc1ccc(C)c(N2CCN(Cc3csc(C)c3)CC2)c1,-22%,0%

# (further entries)
SMILES,HTT promoter inh,PMP22 txn
COc1cccc(NC(=O)CSc2nc3c(oc4ccccc43)c(=O)n2Cc2ccco2)c1,-29%,?
Cc1cccc(NC(=O)N2CCN(C(=O)c3nsc4ccccc34)CC2)c1C,-4%,-4%
Cc1ccc(-n2nc(-c3ccc(F)cc3)c3cnc4cc5c(cc4c32)OCO5)cc1C,-13%,-1%
Cn1c(=O)oc2cc(S(=O)(=O)Nc3ccc(C(=O)O)cc3)ccc21,1%,-3%
CCOc1ccc(-c2c(C)nn3c(C)c(C(=O)NCCc4ccccc4)cnc23)cc1OCC,?,-28%
Cc1ccc2nc(COc3cccc(NC(=O)COc4ccccc4F)c3)cc(=O)n2c1,42%[activator],-11%
FC(F)(F)c1cccc(N2CCN(Cc3nnc(-c4ccc5c(c4)OCO5)o3)CC2)c1,?,-33%
O=C(CSc1nc2ccsc2c(=O)n1Cc1ccccc1Cl)NCc1ccc(Cl)cc1,-4%,?
Cc1cc(NC(=O)c2ccccc2Cl)ccc1NC(=O)c1ccccc1,10%,3%
O=C(OCC1CCCO1)c1ccc2c(c1)N(Cc1c(F)cccc1Cl)C(=O)c1ccccc1S2(=O)=O (stereo unspecified),-9%,1%

# Compound activity from PubChem.
